Compound activity deposited in PubChem BioAssay by several laboratories.
MT1-MMP act inh = blocks activation of human MT1-MMP. AID 651647. HT1080 RFP-PRO-GFP cells, GFP/RFP ratio fluorescence, overnight; percent of plate control window, DMSO zero. 360,000 tested, 0.061% active. GFP/RFP ratio change, % at 20 µM. P50281;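 active = GFP/RFP ratio change of at least 30% with cell ATP level not reduced by more than half and red fluorescence within 50% of control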; note: strong numbers were not always called active
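Assay system: HT1080 RFP-PRO-GFP cells | Dosing: 20 µM single dose, 1% DMSO | Incubation: Cells overnight before dosing, compound overnight, 37 °C, 5% CO2 | Evaluation: GFP/RFP fluorescence ratio | Control set: DMSO-only wells and HT1080 RFP-L50D-GFP cell wells as references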
Rce1 inhib = inhibitors of yeast Ras-converting enzyme; Q03530; yeast membranes, quenched prenylated peptide cleavage fluorescence; calls only; 290,000 tested, 0.27% active; AID 2563;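 active = fall in fluorescence gain of 50% or more versus controls, with final raw signal at or below 3038400; inconclusive = same 50% fall but final raw signal above 3038400; inactive = fall in fluorescence gain under 50%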;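 note: plate controls were neutral control wells for no effect and wells lacking membranes for full effect; tested at 10 µM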
CSC inhib = cancer stem cell inhibition | cancer stem cell-like cells viability, luminescence | 300,000 tested, 1.1% active | inhibition, % at 7.5 µM;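 active = mean at 75% or more and at least half the replicates too; inconclusive = mean and replicates disagree; tested in HMLE shEcad cells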;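 note: 0% = median of negative and 100% = median of positive control wells; the first replicate is given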
Env fusion inh = blocks HIV Env-driven cell-cell fusion; 360,000 tested, 1.1% active; inhibition, % at 12.3 µM; AID 651610; HeLa-JRFL Env/CEM21 cell fusion, luciferase;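 active = mean replicate inhibition score of at least 50 and every replicate individually at or above 50; inconclusive = only one of the two criteria met; inactive = mean below 50 and not all replicates reaching 50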;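 note: 0% = plate neutral controls and 100% = maraviroc near 300 nM; one replicate is shown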
PABP FP inh = PABP-poly(A) binding inhibition | 290,000 tested, 1% active | PABP-poly(A) RNA binding, fluorescence polarization | P11940 | inhibition, % at 35 µM;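 active = 50% or more with normal probe brightness, or confirmed in later tests; inconclusive = above 50% with abnormal brightness, or retests that disagree; inactive = below 50% or failed in later tests; about a fifth of its hits are not listed in these tables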;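 note: calls also rest on retests at 20 µM and on dose response follow-up; controls were probe without protein and protein plus probe with vehicle; some compounds called inactive have numbers as strong as hits; many hits fall short of the cut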
Target sequence (P11940 whole entry, looked up): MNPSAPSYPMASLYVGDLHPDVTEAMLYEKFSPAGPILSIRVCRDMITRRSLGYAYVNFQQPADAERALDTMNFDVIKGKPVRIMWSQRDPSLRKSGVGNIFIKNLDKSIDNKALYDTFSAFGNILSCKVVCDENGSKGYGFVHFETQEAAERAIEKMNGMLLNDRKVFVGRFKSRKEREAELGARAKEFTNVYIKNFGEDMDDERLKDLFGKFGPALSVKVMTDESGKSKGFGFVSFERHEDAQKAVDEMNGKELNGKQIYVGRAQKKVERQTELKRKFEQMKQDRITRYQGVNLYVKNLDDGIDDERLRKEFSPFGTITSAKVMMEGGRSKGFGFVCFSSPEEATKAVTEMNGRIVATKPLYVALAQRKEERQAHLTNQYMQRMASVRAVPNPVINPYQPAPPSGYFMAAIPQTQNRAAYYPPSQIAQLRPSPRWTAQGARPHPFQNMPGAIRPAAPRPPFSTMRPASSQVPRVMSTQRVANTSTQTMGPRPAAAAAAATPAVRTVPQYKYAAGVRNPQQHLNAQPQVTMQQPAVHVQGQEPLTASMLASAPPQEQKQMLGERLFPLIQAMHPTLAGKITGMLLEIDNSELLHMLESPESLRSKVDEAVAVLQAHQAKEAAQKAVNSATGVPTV
Yeast UUG start = yeast start codon fidelity modulation | activity score, % at 18.7 µM | AID 602363 | S. cerevisiae UUG-firefly luciferase reporter, luminescence/redox ratio | 350,000 tested, 0.13% active;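 active = replicate mean at a twofold rise or more, about +100% in these data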;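 note: firefly luciferase made from a UUG start codon reports start codon fidelity; reporter light over untreated wells divided by growth signal over untreated wells; some hits fall short of that in this replicate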
eIF4H inh = inhibitors of RNA binding by human eIF4H | eIF4H fluorescence polarization binding assay | inhibition, % at 35 µM | 290,000 tested, 0.94% active | AID 2012;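 active = 50% or more with normal probe brightness, or confirmed in later tests; inconclusive = above 50% with abnormal brightness, or retests that disagree; inactive = below 50% or failed in later tests; about a fifth of its hits are not listed in these tables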;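 note: calls also rest on retests at 20 µM and on dose response follow-up; 0% = protein and probe with vehicle and 100% = probe without protein; strong numbers were not always called active; many hits fall short of the cut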
MT1-MMP act inh RFP = also measured in MT1-MMP act inh; calls as there; RFP signal change, %; measured here: RFP expression control read;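 0 = vehicle wells; hits needed this value within 50% of zero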
* hit, by the source's call; i = inactive; ? = inconclusive; nt = not tested or not shown; & = joins results of further samples.

The line under a structure holds: MT1-MMP act inh, MT1-MMP act inh RFP, Rce1 inhib, CSC inhib, Env fusion inh, PABP FP inh, Yeast UUG start, eIF4H inh
> CCCCN(CC)CCNS(=O)(=O)c1ccc2c(c1)oc(=O)n2C
  -1, -2, i, -10, -63, -6, -4, 6
> Nc1cccc(C(=O)Nc2ccc(N)cc2Cl)c1
  4, 5, i, -3, nt, 8, nt, -4
> CCN(CC)P(=O)(Nc1ccccc1Br)c1ccc(N(C)C)cc1NC(=O)c1ccco1 (stereo not given)
  -12, -6, i, -11, 43, 8, nt, -2
> COc1ccc(C(=O)C2CCCN(C(=O)c3noc4c3CCCC4)C2)c(C)c1 (stereo not given)
  0, -4, i, -5, 14, 1, -5, -3
> CCOC(=O)N1CCc2c(sc(NC(=O)CN3CCOCC3)c2C#N)C1
  2, -2, i, -7, 3, 3, -11, -6
> CCc1ccc(-c2cc(C(=O)Nc3c(C)n(C)n(-c4ccccc4)c3=O)c3ccccc3n2)s1
  3, 0, i, nt, nt, -5, nt, -4
> O=C(c1ccc(Cl)nc1)c1cccs1
  nt, nt, i, -8, nt, -5, nt, -5
> COc1ccc(-c2nc(CS(=O)(=O)CC(=O)NCc3ccccc3Br)c(C)o2)cc1
  -6, -3, i, -12, -2, -9, -14, 4
> Cc1ccc(S(=O)(=O)Cn2cnnn2)cc1
  3, 3, i, -5, 24, 5, -6, 13
> CC(C)(C)NC(=O)C(c1ccccn1)N(C(=O)c1csnn1)C1CCCC1 (stereo not given)
  1, 4, i, nt, 2, -7, -19, -7
> CCC(C)NS(=O)(=O)c1ccc(NC(=O)C(Sc2ccccc2)c2ccccc2)cc1 (stereo not given)
  -15, -15, i, 3, nt, -1, -3, -13
> CC(C)(C)c1cc(CN2CCOCC2)c(C(=O)O)o1
  2, 3, i, -1, -125, 12, -6, 6
> O=C(c1ccco1)N1CCN(C(=O)c2ccc(COc3ccc(Cl)cc3Cl)o2)CC1
  12, -8, i, 0, 32, nt, 18, nt
> Cc1cc(C)cc(S(=O)(=O)Cc2noc(C(=O)NCc3ccccc3)c2C(=O)NCc2ccccc2)c1
  -2, -4, nt, nt, 0, nt, -14, nt
> Cc1ccn2c(Cc3ccccc3)c(-c3ccc(Br)cc3)nc2c1
  -8, -12, nt, nt, -34, nt, -7, nt
> Clc1cnc(Nc2cccnc2)c(Cl)c1
  2, -1, i, -4, -71, 2, -4, -10
> CC(=O)CCc1c(C)[nH]c2ccc(NC(C)=O)cc2c1=O
  6, 3, i, nt, nt, -2, -33, 10
> COc1ccc(N(CC(=O)NCCOc2ccccc2)S(=O)(=O)c2ccc(C)cc2)cc1
  -8, -7, i, nt, -4, 2, -5, 0
> O=C(CCNS(=O)(=O)c1ccc(Br)s1)NCc1ccccc1
  0, 3, i, -9, -9, -15, nt, -4
> CC(=O)c1cnc(Nc2nc(C)c3ccc(C)cc3n2)nc1C
  3, 2, i, -11, -117, -5, -20, -10

Complete entries from above. Screens in order: MT1-MMP act inh, MT1-MMP act inh RFP, Rce1 inhib, CSC inhib, Env fusion inh, PABP FP inh, Yeast UUG start, eIF4H inh
`CCN(CC)P(=O)(Nc1ccccc1Br)c1ccc(N(C)C)cc1NC(=O)c1ccco1` (stereo not given) across the screens: -12, -6, i, -11, 43, 8, nt, -2
`COc1ccc(C(=O)C2CCCN(C(=O)c3noc4c3CCCC4)C2)c(C)c1` (stereo not given) across the screens: 0, -4, i, -5, 14, 1, -5, -3
`Clc1cnc(Nc2cccnc2)c(Cl)c1` across the screens: 2, -1, i, -4, -71, 2, -4, -10
`COc1ccc(N(CC(=O)NCCOc2ccccc2)S(=O)(=O)c2ccc(C)cc2)cc1` across the screens: -8, -7, i, nt, -4, 2, -5, 0
`CCc1ccc(-c2cc(C(=O)Nc3c(C)n(C)n(-c4ccccc4)c3=O)c3ccccc3n2)s1` across the screens: 3, 0, i, nt, nt, -5, nt, -4

(continued)
The line under a structure holds: MT1-MMP act inh, MT1-MMP act inh RFP, Rce1 inhib, CSC inhib, Env fusion inh, PABP FP inh, Yeast UUG start, eIF4H inh
> CCOc1ccc(CN2CCCC(CO)(Cc3ccccc3F)C2)cc1 (stereo not given)
  4, 6, i, 14, 7, 8, 10, -4
> OCCN(CCO)CC(O)COc1ccc(Br)cc1 (stereo not given)
  4&-3, 7&6, i, -7&-18, 1&5, -9&-8, -6, 4&-6
> CCN(CC)C(=O)Oc1ccccc1NC(C)=O
  -6, -3, i, -1, -142, 4, -9, 5
> COc1cc(OC)cc(C(=O)Nc2ccc(S(=O)(=O)Nc3cc(C)nc(C)n3)cc2)c1
  nt, nt, i, -13, -77, 2, nt, -5
> COc1cccc(-n2c(C)c3c(OC)cccc(=O)c3c2C)c1
  -10, 2, i, -3, 11, ?, -11, ?
> CN(c1nc2ccccc2nc1Cl)S(=O)(=O)c1ccccc1
  1, 1, i, -5, -8, 2, 4, 2
> O=C(CSc1nc(-c2cccs2)nc2ccccc12)NC1CCS(=O)(=O)C1 (stereo not given)
  -4, -4, nt, 0, nt, nt, -3, nt
> Cc1ncc(S(=O)(=O)C(C)(C)C)c(N)n1
  -2, -1, i, -4, -4, 1, nt, 4
> CCCCc1nc2cc(C(=O)NCc3cc(C)n(C)n3)ccc2o1
  4, 4, i, -5, -13, -5, -15, -10
> COc1cc(C(=O)NCC(=O)OCc2ccccc2Cl)cc(OC)c1OC
  1, 3, i, -3, 11, -2, 0, -8
> Nc1cc(C(F)(F)F)cc([N+](=O)[O-])c1N
  2, 1, i, -8, -18, -5, nt, -16
> CCCCCCCCCCOC(=O)C[N+](C)(C)C/C=C(/C)Cl
  -10, -9, i, 59, 11, -4, -14, -4
> CN1OC[C@@H]2CN(Cc3cc(Cl)cc(Cl)c3)[C@H](c3cccc(Oc4ccccc4)c3)C[C@@H]21
  -5, -9, nt, nt, 6, nt, -9, nt
> N#CCN1CCCC(C(N)=O)C1 (stereo not given)
  -3, -2, i, -15, -7, 9, -11, 6
> Cn1cc(CN2CCC(CO)CC2)c(-c2ccc(Oc3ccccc3)cc2)n1
  0, 4, i, 50, -6, -4, nt, 5
> CC(C)(C)c1ccccc1OCCOCCN1CCCCCC1
  -2, -2, i, 31, 6, -9, nt, 1
> CC(=O)Nc1ccc(OC(=O)c2cc([N+](=O)[O-])ccc2Cl)cc1
  1, 6, i, 5, nt, 3, -12, 2
> Cc1cc(=O)oc2cc(NC(=O)C3CC(=O)N(Cc4ccccc4)C3)ccc12 (stereo not given)
  8, 19, i, -20, -145, -3, -18, 2
> COc1ccc(C2NC3=C(CCC3)C3(C#N)C4(N=C(N)C23C#N)OCCO4)cc1 (stereo not given)
  -8, 0, i, 9, nt, 64*, -27, 72*
> O=C(CSc1ncccn1)Nc1ccc(N2CCOCC2)cc1
  4, 2, i, -3, nt, -6, -9, -10

Remaining list, next part
The line under a structure holds: MT1-MMP act inh, MT1-MMP act inh RFP, Rce1 inhib, CSC inhib, Env fusion inh, PABP FP inh, Yeast UUG start, eIF4H inh
> S=C(NCCc1ccccc1)Nc1ccc(Cl)cc1
  4, -3, i, 2, -12, 0, nt, -6
> CCOc1ccc(OCCC(=O)NNC(=O)c2nn(C)c(=O)c3ccccc23)cc1
  1, -2, i, 2, 15, 16, -5, 27
> CC1(c2ccccc2)NC(=O)N(CC(=O)Nc2ccc(Cl)c(S(=O)(=O)N3CCCCC3)c2)C1=O (stereo not given)
  7, 1, i, 20, 3, 5, -1, -4
> Cc1ccccc1C(=O)/C=C1/SCC(=O)N1C
  -13, 6, i, -5, -20, 0, nt, ?
> O=C(CNC(=O)c1ccccc1F)OCc1nc2ccccc2s1
  0, 3, i, -15, -13, -10, nt, 6
> Cc1ncoc1C(=O)N1CCCC(N2CCN(c3ccccc3F)CC2)C1 (stereo not given)
  -4, 1, i, 6, -23, 4, 0, 8
> COc1ccc(-c2nnc(SCC(=O)NC(=O)NCc3ccco3)o2)cc1
  5, 6, i, 1, 3, -6, -9, 2
> CCCCN(C=O)c1c(CC)nc2ccc(C(=O)N3CCN(C)CC3)cn12
  0, 5, nt, nt, 12, nt, -15, nt
> COC(=O)Cn1cnc2scc(-c3ccc(C)c(C)c3)c2c1=O
  0, 3, i, -8, 9, -8, -11, 6
> Cc1csc(NC(=O)CCNC(=O)c2ccccc2Cl)n1
  -2, 5, i, -3, -22, 9, nt, 8
> Cn1c(=O)oc2cc(S(=O)(=O)N3CCC(C(=O)NCc4ccccc4Cl)CC3)ccc21
  4, -1, i, -16, 0, 0, -11, 0
> CCNC(=O)Cc1c(OC)ccc2cc(Br)ccc12
  1, -3, i, nt, 31, ?, -1, -6
> COc1ccc(N2C(=O)c3ccccc3NC2c2ccc(OC)c(CSc3ccccn3)c2)cc1 (stereo not given)
  1, 0, i, 26, nt, 4, -16, -1
> Cc1ccc(NC(=O)COC(=O)CN2CCSC2=O)cc1Cl
  2, 1, nt, nt, 0, nt, -13, nt
> COc1c([N+](=O)[O-])cc(C(=O)NNC(=O)c2ccc(C)cc2)cc1[N+](=O)[O-]
  3, 4, i, 0, -14, 7, -10, 12
> O=C(CS(=O)(=O)c1ccccc1)Nc1ccccn1
  3, 7, i, -4, 3, 3, nt, 1
> CC1(C)CC2CC(C)(CN2C(=O)c2cc(-c3ccccc3O)on2)C1 (stereo not given)
  -1, -11, i, 68, 7, -8, -13, -14
> CN(c1ccccc1)S(=O)(=O)c1cccc(NC(=O)COc2ccccc2)c1
  2, -6, nt, nt, -5, nt, -15, nt
> COC(=O)CSc1n[nH]c(-c2ccncc2)n1
  1, 6, i, -12, 19, -5, -12, -6
> O=C(c1ccccc1OCc1ccc(Cl)cc1)N1CCN(c2ccccn2)CC1
  2, -3, i, -7, -36, nt, -16, nt

Further results
The line under a structure holds: MT1-MMP act inh, MT1-MMP act inh RFP, Rce1 inhib, CSC inhib, Env fusion inh, PABP FP inh, Yeast UUG start, eIF4H inh
> CN(CC(=O)Nc1ccc2c(c1)OCCO2)S(=O)(=O)c1cccc2cccnc12
  -2, 2, i, -4, -10, 0, -23, -2
> O=S1(=O)[C@H]2C[C@@H]3C=C[C@@]2(CN1Cc1ccccc1F)O3
  3, 3, i, 0, -13, 11, -5, 4
> COC(=O)[C@H](Cc1c[nH]c2ccccc12)NC(=O)CCCc1c[nH]c2ccccc12
  -7, -4, i, -15, -6, 0, -13, 2
> O=C(O)CCC(=O)N1CCN(c2ncccn2)CC1
  2, 7, i, -4, -4, 0, nt, -4
> COc1cc(CN2C(=O)C(C)ON=C2c2cccs2)cc(OC)c1 (stereo not given)
  1, 5, nt, nt, -6, nt, -6, nt
> Cc1ccc(S(=O)(=O)Nc2nc3ccccc3nc2N2CCN(c3ccccc3F)CC2)cc1
  3, -5, i, 13, nt, 2, 0, 2
> CCCCCCn1c(N)c(C#N)c2ccc([N+](=O)[O-])cc2c1=O
  -3, -1, i, -21, 10, -10, nt, 17
> O=C(CNC(=O)c1cccc(S(=O)(=O)N2CCc3ccccc32)c1)Nc1ccc(F)c(F)c1F
  7, 2, nt, nt, -17, nt, -7, nt
> COCCn1c(COc2ccc(OC)cc2)nc2ccccc21
  -2, -6, i, -4, nt, -5, -7, 9
> NC(=O)c1ccsc1NC(=O)COC(=O)COc1ccccc1[N+](=O)[O-]
  -1, 0, nt, nt, 15, nt, -15, nt
> COc1ccc(-c2cnc(SCC(=O)Nc3cc(C)on3)n2Cc2ccco2)cc1
  0, -4, i, 29, nt, -11, -18, -9
> CCCCNC(=O)C(=O)Nc1ccc2c(c1)N(S(=O)(=O)c1cccs1)CCC2
  13, -11, nt, nt, -5, nt, -36, nt
